# AID504770: growth inhibition of E. coli YBA685, primary screen, V. cholerae RctB inhibitors; E. coli YBA685 rctB-dependent plasmid, OD600 growth, 3 h; hits give low values; z-score (concentration not given with the values); actives 0.27% (n = 130,000); AID 504770, 2011;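 active = z-score under -2 on both plates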;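 note: wells of about 30 µL received 100 nL stock; score is relative to mean and SD of the test wells; the first replicate is given; strong numbers were not always called active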
# CapD inh: Bacillus anthracis CapD inhibitors, primary screen, biochemical, fluorescence intensity | CapD gamma-glutamyltranspeptidase (Bacillus anthracis Ames Ancestor) | AID 492967, 2010 | z-score (concentration not given with the values) | purified CapD enzyme, fluorescence intensity read-out; hits give low values; some hits fall short of the stated cut | actives 0.23% (n = 140,000);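 active = z-score under -4 in either of two replicates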;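 note: stock transfer was 100 nL into about 40 µL; score is relative to mean and spread of the plate; one replicate is shown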
# Active calls of the source: *; / = no result given.
# Below each SMILES: AID504770	CapD inh
O=C(N/N=C/c1cccc(OCc2ccccc2)c1)c1ccccc1Cc1ccccc1
→ /	-0.97
c1ccc(C2=Nn3c(nnc3-c3ccccc3)SC2)cc1
→ -1	-0.87
COc1cccc(NC(=S)/N=C(\N)Nc2nc(C)c3ccccc3n2)c1
→ -0.25	-5.9*
CCN(CC)C(=O)C1CCN(Cc2cccc(OC)c2OC)CC1
→ -0.25	/
O=C(Cn1c(C(F)(F)F)nc2ccccc21)c1ccccc1
→ 0.85	-0.29
O=C(CSc1nc2ccsc2c(=O)n1Cc1ccccn1)c1ccccc1
→ 0.2	1.4
O=C1C2C3C=CC(C3)C2C(=O)N1CNc1ccccc1 (stereo not drawn)
→ 0.25	0.045
C/C(N)=C(/C#N)C(=O)CSc1cc(C)ccc1C
→ 1.2	/
CCCS(=O)(=O)c1c(S(=O)(=O)CCC)c2c(C)cccn2c1C(=O)N/N=C/C(C)C
→ /	0.78
CCCCC1(C)NC(=S)N(c2ccc(C)cc2)N1 (stereo not drawn)
→ /	-0.29
CC(=O)Nc1nc2ccccc2c(=O)s1
→ 0.4	0.29
CCOC(=O)Cc1c(C)nc2c(C#N)c(C)nn2c1C
→ -0.8	54
CC(C)Cn1c(SCC(=O)C(C)(C)C)nc2ccccc2c1=O
→ 1	/
Cc1ccc(O)c(C(=O)c2cc(-c3nc4ccccc4c(=O)[nH]3)n(C)c2)c1
→ 0.15	/
CN1C(=O)C(C)(C)c2cc(S(=O)(=O)N3CCc4ccccc43)ccc21
→ 0.2	0.55
O=C(Nc1ncc2c(n1)-c1ccccc1CC2)c1cccc(C(F)(F)F)c1
→ /	-0.23
NCc1ccc(OCc2ccc(F)cc2)cc1
→ -0.75	/
Cc1cccc(NC2=NC(=S)N(c3ccc(Cl)cc3)C23CCCCC3)c1
→ /	-0.23
CSc1nc(NNC(=O)c2ccco2)c2c3c(sc2n1)COC(C)(C)C3
→ -0.15	/
Cc1cccc(N2CCN(C(=O)Cc3c(C(=O)O)[nH]c4ccc(Cl)cc34)CC2C)c1 (stereo not drawn)
→ 0.35	0.38
CC1(C)CC(=O)C=C(SCC(=O)c2ccc(Cl)cc2)S1
→ 0	-0.32
Cc1cccc(NC(=O)CC(NC(C)C)C(=O)O)c1 (stereo not drawn)
→ -0.1	-0.51
O=C(c1c[nH]c2ccccc12)C(c1ccccc1)N1CCCCC1 (stereo not drawn)
→ -0.55	/
Nc1nc(CCC(=O)O)cs1
→ -0.4	/
O=S(=O)(CCc1ccccc1)c1ccccc1
→ 1.1	0.21
CN(C1=NC(=O)/C(=C2/C(=O)N(C)c3ccccc32)S1)c1ccc(Cl)cc1
→ 0	0.15
CC1CCN(Cc2c(O)ccc3occ(C(=O)c4ccccc4)c23)CC1
→ 0.15	0.58
COc1ccc(N2CCN(CCCNC(=O)C3CCCN(S(=O)(=O)c4c(C)noc4C)C3)CC2)cc1 (stereo not drawn)
→ 2.6	2.2
CC1=C(C(=O)Nc2ccc(Cl)cc2C(=O)N2CCc3ccccc32)SCCO1
→ 1.7	-0.43
COc1ccc(-n2cc[nH]c2=S)cc1
→ 0.6	/
CN(C)c1ccc(-c2nnc(SCC3CCCO3)n2C)cc1 (stereo not drawn)
→ -0.5	/
O=C(/C=N/O)Nc1cccc(F)c1
→ -0.25	/
Nc1c(S(=O)(=O)c2ccc(Cl)cc2)c2cnn(-c3ccccc3)c(=O)c2n1CCCN1CCOCC1
→ 0.5	/
CCn1c(C)nc2cc(C(=O)NN=C3CCN(C)CC3)ccc21
→ -0.6	/
On1c(-c2ccccc2Cl)nc2c1CCc1nonc1-2
→ -0.1	-0.18
CC1CC(C)CN(C(=O)Cn2c(=O)n(CCCCC(=O)NCc3ccco3)c(=O)c3ccccc32)C1 (stereo not drawn)
→ 0.15	0.65
c1ccc(-c2ccccc2NC2=NCCS2)cc1
→ -0.55	1
N#CC1=CC=C(c2ccc(Cl)cc2)NC1SCc1nc2ccccc2[nH]1 (stereo not drawn)
→ -0.7	0.68
O=C(Oc1ccc(C=Nc2ccc(F)cc2)cc1)c1ccco1
→ -0.3	-0.32
CCOC(=O)c1cc(-c2ccccc2)n(CCC(=O)N(C)Cc2ccccc2)c1
→ -0.75	0.065
CC(Nc1ccccc1)N1C(=O)CCC1=O (stereo not drawn)
→ -0.35	0.38
CC1CC(C)(C)NC(=S)N1CCCC(=O)NCc1ccccc1 (stereo not drawn)
→ /	0.45
O=S(=O)(NC1c2cccc3cccc(c23)C1N1CCNCC1)c1ccc(Cl)cc1 (stereo not drawn)
→ /	-0.71
Cc1oc(CO)cc1C(=O)O
→ -0.1	/
Cc1ccc2cc(Nc3nc(N4CCOCC4)nc(N4CCOCC4)n3)ccc2n1
→ /	36
COc1ccc2c(c1)CCc1c-2nc2ccc(Br)cc2c1C(=O)O
→ -0.45	5
Cc1ccccc1COC(=O)NC(Cc1c[nH]c2ccccc12)C(N)=O (stereo not drawn)
→ /	-0.62
COc1ccc(CNC(=O)OCc2nccnc2C(=O)Nc2ccc(Br)cn2)cc1
→ 1.9	6.3
NC(=S)Nc1ccc(Cl)c(Cl)c1
→ /	-0.03
CCn1c(CNC(=O)c2ccccc2)nc2ccccc21
→ 0.3	-0.26
c1ccc2c(COn3nnc4ccccc43)cccc2c1
→ -0.2	-0.005
CC(NC(=O)COc1ccccc1F)C1CC2CCC1C2 (stereo not drawn)
→ -0.1	-0.05
Cc1ccc(S(=O)(=O)Nn2c(SCC(=O)n3nc(N)cc3C)nc3ccccc3c2=O)cc1
→ /	-2.2
Cc1ccc(-c2csc(NC(=O)c3cccc(Cl)c3)n2)cc1C
→ -0.3	0.55
COc1ccc(CCNC(=O)c2ccc3nccnc3c2)cc1OC
→ 0	0.53
Nc1nc(SCC(=O)NN(c2ccccc2)c2ccccc2)n[nH]1
→ -0.85	/
Cc1ccc(Cn2c(SCC(=O)c3ccc(Br)cc3)nc3ncccc3c2=O)cc1
→ 0.15	-0.57
O=C(NC1CCCCC1)c1ccc(CS(=O)Cc2ccc(Cl)cc2)o1 (stereo not drawn)
→ -0.05	-1.3
Oc1nc2ccccn2c1-c1c(O)nc2ccccn12
→ 1.6	1.8
CCCC(=O)N1CCS(=O)CC1
→ 0.3	0.11

# Full records, quoted from the list. Screens in order: AID504770 | CapD inh
# CCCC(=O)N1CCS(=O)CC1 is entered as 0.3 | 0.11
# COc1ccc(CCNC(=O)c2ccc3nccnc3c2)cc1OC is entered as 0 | 0.53
# COc1ccc(CNC(=O)OCc2nccnc2C(=O)Nc2ccc(Br)cn2)cc1 is entered as 1.9 | 6.3
# CCn1c(CNC(=O)c2ccccc2)nc2ccccc21 is entered as 0.3 | -0.26
# COc1ccc2c(c1)CCc1c-2nc2ccc(Br)cc2c1C(=O)O is entered as -0.45 | 5

# (continued)
# Below each SMILES: AID504770	CapD inh
CC(Cc1ccccc1)NC(=O)CC(c1ccccc1)c1cc(Br)ccc1O (stereo not drawn)
→ -0.25	-0.14
Clc1ccc(CSc2nc3ccccc3s2)cn1
→ -0.65	-0.17
c1ccc(-c2nc3ccccn3c2NCC2CCCO2)cc1 (stereo not drawn)
→ -0.75	/
Cc1cc(I)ccc1NC(=O)CSc1ncn[nH]1
→ -0.8	-0.32
Cc1ccccc1OCC1=NN2C(=N)/C(=C\c3ccc(SCc4ccco4)o3)C(=O)N=C2S1
→ 0.35	-1.4
COc1ccc2ccccc2c1CN1CCN(C(=O)OCc2ccc(C)cc2)CC1
→ /	0.58
O=C(NCc1ccc(-c2nc3ccccc3s2)cc1)c1cccnc1
→ -0.15	3.1
Fc1ccc(C(NCCc2ccccc2)c2nnc(-c3ccccc3)o2)cc1 (stereo not drawn)
→ 1.1	-0.37
O=C(Nc1ccc(Cl)cc1)C1CC(=O)N(Cc2ccc(F)cc2)C1 (stereo not drawn)
→ -0.3	0.75
O=C1CC(c2ccccc2)C(=O)N1c1ccc(I)cc1 (stereo not drawn)
→ 0.5	0.095
CN1CCN(CCCN2C(=O)CSC2c2ccc(F)cc2)CC1 (stereo not drawn)
→ 1.1	-0.86
CCCn1c(=O)c(-c2noc(-c3ccc(Cl)cc3)n2)nn(-c2ccccc2)c1=O
→ 1.9	-0.43
CN(c1ccccc1)C(c1ccc(F)cc1)c1nnnn1C1CCCC1 (stereo not drawn)
→ -0.9	/
COc1cc(OC)c(OC)cc1C=Nc1c(C)n(C)n(-c2ccccc2)c1=O
→ /	0.24
Nc1cc(C(=O)O)ccc1Nc1ccccc1
→ -0.75	16

# Sorted by length of the SMILES (smallest number first): some entries from above
# Below each SMILES: AID504770	CapD inh
Cc1cc(I)ccc1NC(=O)CSc1ncn[nH]1
→ -0.8	-0.32
CN(c1ccccc1)C(c1ccc(F)cc1)c1nnnn1C1CCCC1 (stereo not drawn)
→ -0.9	/
CC(Cc1ccccc1)NC(=O)CC(c1ccccc1)c1cc(Br)ccc1O (stereo not drawn)
→ -0.25	-0.14

# Continued.
# Below each SMILES: AID504770	CapD inh
COc1ccc(/C=N/n2cnnc2)cc1
→ 0.5	12
Cn1c(=O)[nH]c(=O)c2c1nc(N)n2CCOc1ccccc1
→ 0.45	0.67
CCOC(=O)c1ccc(N2CCOCC2)c(N=Cc2c(O)ccc3ccccc23)c1
→ /	-0.55
FC(F)(F)c1cccc(Nc2ncn[nH]2)c1
→ -0.05	-0.075
N#Cc1ccc(C(=O)Nc2c(C(=O)c3cccs3)oc3ccccc23)cc1
→ -0.25	/
CC(C)(C)c1ccc(Oc2ncccc2NS(=O)(=O)c2ccccc2C(F)(F)F)cc1
→ /	0.26
O=C1C2C3C=CC(C3)C2C(=O)N1CCCO (stereo not drawn)
→ -0.35	0.3
Cc1nc(SCC(=O)O)c2c3c(sc2n1)CCCC3
→ -0.35	-0.055
CN(C)/C=C/c1snc(SCc2ccc(Cl)cc2Cl)c1C#N
→ /	-0.96
O=C(CSc1cccc[n+]1[O-])NC(=O)c1ccc(OC(F)F)cc1
→ -1.6	/
COc1ccc(N2CC(C)(C)C2=O)cc1
→ -0.6	-0.83
CC(OC(=O)c1ccc(O)cc1)C(=O)c1ccccc1 (stereo not drawn)
→ 0.05	/
O=C(CC1SC(=O)NC1=O)Nc1cccc(C(F)(F)F)c1 (stereo not drawn)
→ -0.7	-0.4
CC(c1nc2ccccc2c(=O)[nH]1)N(C)CCOc1ccc(Cl)cc1 (stereo not drawn)
→ 0.8	/
O=C1c2ccccc2C(=O)C1C(c1ccccc1)C1C(=O)c2ccccc2C1=O
→ -0.95	7.1
Cc1nn(-c2ccccc2)c(N2CCCC2)c1/C=N/NC(=O)C1CC1
→ -0.95	/
C=CCn1c(SC2CCCC2=O)nnc1-c1ccc(Cl)cc1 (stereo not drawn)
→ 0.25	/
CN(C)CCNC(=O)Cn1ncc2c(=O)oc3ccccc3c21
→ 1.5	-0.38
CCC/C=C1\CC(c2ccccc2)C(C#N)(C#N)C(N)=C1C#N (stereo not drawn)
→ /	47
CSCCC1COC(c2cccn2Cc2ccccc2)=N1 (stereo not drawn)
→ 0.25	0.09
COc1ccccc1NC(=S)N1CC(C)(C)C1=O
→ /	-0.1
CC12C(=O)N(Cc3ccccc3)C(=O)C1C1C=CC2C1 (stereo not drawn)
→ -0.55	-0.94
COc1ccc(S(=O)(=O)Nc2nc3ccccc3s2)cc1OC
→ /	0.66
Cc1ccc(/C=C/S(=O)(=O)NCC(=O)O)cc1
→ -0.6	/
CC(C)(O)C#Cc1ccc(C(=O)N2CCCC2C(=O)O)s1 (stereo not drawn)
→ -0.9	-0.21
O=C(Nc1ccccc1)N1CCCCC1c1cccnc1 (stereo not drawn)
→ -0.1	0.36
CC1(C(=O)NC2CCCCCC2)Cc2ccccc2C(=O)N1Cc1ccco1 (stereo not drawn)
→ -0.3	0.3
COC(=O)c1c(C)oc2ccc(N(C(=O)c3c(OC)cccc3OC)S(=O)(=O)c3ccc(Cl)cc3)cc12
→ /	-0.3
Cc1cc(NC(=NC2CC2)c2ccccc2F)n(-c2ccccc2)n1
→ -0.45	/
CC(C)(C)C(=O)Nc1sccc1C#N
→ 0.75	/
O=C(NCc1ccc(F)cc1)[C@H](CSCc1ccccc1)N1Cc2ccccc2C1=O
→ 0	-0.14
Cc1c2cnn(-c3ccccc3)c(=O)c2c(C)n1C(C)C(=O)NCCN1CCCC1 (stereo not drawn)
→ -0.55	0.055
CC(=O)c1c(C)cc2cc(C)cc(O)c2c1O
→ /	-0.32
O=C(c1cccc2c1C(=O)N(C1CCCCC1)C2)N1CCN(c2ccc(F)cc2)CC1
→ 1.2	-1.9
Cc1ccc(-c2ccc(C=C3C(=O)N(C)C(=O)N(C)C3=O)o2)c(Br)c1
→ /	-0.24
CC(C)c1nc2ccc(Cl)cc2c2c1C(=O)N(CCN1CCCCCC1)C2=O
→ /	0.4
CC(C)Oc1ccc(CN(Cc2ccco2)C(=O)NC2CCN(Cc3ccc4ccccc4c3)C2)cc1 (stereo not drawn)
→ /	-0.12
CN1CCN(CCCNC(=O)c2ccc(-c3ccccn3)s2)CC1
→ /	25
COc1ccc(NC(=O)c2ccc(S(=O)(=O)N3CCCC3)cc2)cc1
→ 1.4	-1
CSc1nc2nccc(NC(=O)c3cccc(C)c3)n2n1
→ 0.1	0.38
CC(=O)N(C)CCc1ccc(C)[n+]([O-])c1
→ -0.2	0.34
O=C(NCCSc1ccc(Br)cc1)c1ccc(F)cc1
→ /	-0.71
CCn1ncc(Br)c1C(=O)NC1CCCCC1
→ -0.05	-0.16
O=C(NCCc1ccccc1)c1cc(-c2ccccc2)c(N2CCOCC2)s1
→ 0.75	26
CC1(C)CC(=O)C2=C(C1)NCN(Cc1ccccc1)C2
→ -0.2	/
Cc1ccc(-n2ccnc(NCCc3ccc(S(N)(=O)=O)cc3)c2=O)cc1
→ 0.45	5.8

# Compound activity deposited in PubChem by ICCB-Longwood Screening Facility, Harvard Medical School.

# Rows are unselected. About 0.37% of those tested had a hit in this group.
